High-throughput results deposited in PubChem by Broad Institute.
T cruzi repl: T. cruzi replication inhibition; T. cruzi beta-gal in NIH3T3, luminescence, 90 h; inhibition, % (concentration not given with the values); hit rate 1.4% among 300,000;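 active = mean inhibition across valid replicates above about 55%, limit read from the data; inconclusive = mean below that limit but half or more replicates reach it; inactive = mean below it, under half of replicates reach it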;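 note: signal also drops with host cell toxicity which is not excluded here; 0% = plate median of DMSO wells and 100% = zero luminescence signal; higher percent means less beta-gal luminescence so fewer parasites; stock transfer was 50 nL into about 50 µL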
Ecoli rRNA inh: inhibitors of bacterial rRNA selective over humanized ribosomes; E. coli WT GFP vs humanized-ribosome RFP mutants, fluorescence, 24 h; stronger effect = lower value; DMSO median 0, no signal -100; GFP signal change (wild-type ribosome), % (concentration not given with the values); hit rate 1.6% among 350,000; AID 720706;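 active = significant combined selectivity score with lowered wild-type GFP, culture density cut under 30%, mutant RFP and density less affected; inactive = any of these conditions unmet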; note: one replicate is shown; some compounds called inactive have numbers as strong as hits
Calb FLC: affects C. albicans growth with fluconazole; C. albicans CaCi-2 (fluconazole-resistant clinical isolate) + fluconazole, Alamar Blue growth, 48 h; growth inhibition, % (no concentration beside the values); hit rate 0.57% among 300,000;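 active = most replicates above 75%; inconclusive = exactly half above 75%; inactive = most below 75%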;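 note: all wells also contain fluconazole at 8 µg/ml as a sub-toxic cotreatment; 0% = median of DMSO wells and 100% = median of geldanamycin control wells; wells of about 8 µL received 7.5 nL stock; the first replicate is given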
Beta cell apopt: beta cell apoptosis inhibition; INS-1E cytokine-induced death, ATP luminescence, 48 h; percent of positive-control rescue, neutral wells zero; protection from apoptosis, % (test concentration not listed); hit rate 0.8% among 300,000;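 active = all replicates at 75% or more, or half of them and the mean; inconclusive = half reach 75% but not the mean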;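 note: 0% = cytokine-treated negative control wells and 100% = positive control rescue; higher means more ATP so stronger rescue from cytokine killing; wells of about 40 µL received 100 nL stock; the first replicate is given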
FGF22 binding: FGF22 (human) thermal shift binding. Q9HCT0. recombinant FGF22 thermal shift, SYPRO orange fluorescence; percent of sucrose octasulfate shift, DMSO zero. calls only at 9.99 µM. hit rate 1.5% among 340,000;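 active = melting point raised past a set limit in the mean and every replicate; inconclusive = no clear call; three in four hits are not shown here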
Target sequence (Q9HCT0 whole entry, looked up): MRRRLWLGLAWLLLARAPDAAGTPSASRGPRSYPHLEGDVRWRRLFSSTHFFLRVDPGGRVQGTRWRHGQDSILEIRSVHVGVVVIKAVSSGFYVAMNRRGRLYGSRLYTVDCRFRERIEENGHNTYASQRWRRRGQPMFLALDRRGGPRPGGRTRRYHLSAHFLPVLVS
ALR inh: human ALR oxidase inhibition via reduced H2O2; P55789; purified ALR, DTT oxidation, H2O2 HRP-luminol luminescence; inhibition, % (concentration not given with the values); hit rate 3.8% among 290,000;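 active = mean and each replicate at 75% or more; inconclusive = only one of the two met; inactive = neither met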;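 note: stock transfer was 7.5 nL into about 7.5 µL; 0% = neutral wells and 100% = wells with inactivated enzyme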
Target sequence (P55789 whole entry, looked up): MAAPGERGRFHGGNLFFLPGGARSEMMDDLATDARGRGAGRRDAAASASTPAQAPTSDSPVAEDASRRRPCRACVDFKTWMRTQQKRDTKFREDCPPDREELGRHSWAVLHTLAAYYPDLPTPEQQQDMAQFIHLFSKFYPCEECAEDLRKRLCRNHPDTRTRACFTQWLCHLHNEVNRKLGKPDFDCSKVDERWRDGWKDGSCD
AF4-AF9 inh: inhibitors of human MLL-AF4/AF9 interaction; P42568; AlphaScreen, biotin-AF4 peptide binding to FLAG-AF9; inhibition, % at 10 µM; hit rate 0.47% among 350,000; AID 651704;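 active = every replicate reaching a set inhibition limit, whatever the replicate mean, cut at about 25% in these data; inconclusive = mean inhibition reaches that limit but some replicates miss it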;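 note: 0% = plate neutral control median and 100% = total signal loss; the record names both 10 and 1 µM as test concentration; the first replicate is given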
Target sequence (P42568 whole entry, looked up): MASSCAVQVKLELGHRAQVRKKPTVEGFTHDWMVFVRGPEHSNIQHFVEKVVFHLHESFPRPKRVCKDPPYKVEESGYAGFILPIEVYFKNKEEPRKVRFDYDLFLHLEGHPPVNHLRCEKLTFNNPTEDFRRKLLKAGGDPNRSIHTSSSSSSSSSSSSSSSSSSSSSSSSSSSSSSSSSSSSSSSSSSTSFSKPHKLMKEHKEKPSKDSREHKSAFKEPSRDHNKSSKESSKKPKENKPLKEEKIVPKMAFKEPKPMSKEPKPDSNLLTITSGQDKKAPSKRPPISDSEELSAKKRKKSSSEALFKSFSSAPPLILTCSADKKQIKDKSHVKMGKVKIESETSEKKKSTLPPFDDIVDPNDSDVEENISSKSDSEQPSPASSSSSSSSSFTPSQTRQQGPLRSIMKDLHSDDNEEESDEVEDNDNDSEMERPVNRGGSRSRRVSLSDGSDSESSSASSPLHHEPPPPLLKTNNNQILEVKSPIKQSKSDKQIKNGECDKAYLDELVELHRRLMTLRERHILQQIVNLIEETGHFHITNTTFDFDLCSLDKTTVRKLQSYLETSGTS
RanGTP-Impb inh: disruptors of Ran-importin-beta complex formation – biochemical, FRET, CFP-Ran, YFP-importin-beta, homogeneous, primary screen | inhibition, % (test concentration not listed) | cell-free CFP-Ran/YFP-importin-beta FRET ratio | hit rate 1.1% among 300,000 | AID 2216;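 active = most replicates above 15%; inconclusive = exactly half above 15%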;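 note: 0% = DMSO wells and 100% = Ran loaded with GDP instead of GTP; wells of about 40 µL received 100 nL stock; the first replicate is given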
Ecoli rRNA inh OD600: recorded beside Ecoli rRNA inh, whose call it bears; OD600 change, %; measured here: OD600 growth;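 optical density of the mix in the first replicate; 0 = DMSO median and -100 = no signal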
Ecoli rRNA inh RFP: further read-out of Ecoli rRNA inh, marked with its call; RFP signal change, %; measured here: RFP humanized mutant strains;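 first replicate; 0 = DMSO median and -100 = no signal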
An asterisk follows results filed as active; i = inactive; ? = inconclusive; · = not tested or not shown; + = active, no number. Only part of the results is shown. The share of hits here may be higher or lower than overall.

SMILES	T cruzi repl	Ecoli rRNA inh	Ecoli rRNA inh OD600	Ecoli rRNA inh RFP	Calb FLC	Beta cell apopt	FGF22 binding	ALR inh	AF4-AF9 inh	RanGTP-Impb inh
CC1(C)NC(=O)N(CC(=O)OCC(=O)NC(=O)c2ccccc2)C1=O	-3	4	9	1.7	-6	9	i	·	0.7	-0.2
CCN1CCCC1CNC(=O)Cn1nc(C)n2c(cc3cc(C)ccc32)c1=O (stereo not drawn)	6	4	6	0.1	-3	0	i	0	2.4	-2.2
Nc1cccc(-c2nc3ccc(C(=O)c4ccccc4)cc3[nH]2)c1	-3	-35	-30	-3.2	8	·	+	-12	2.9	1.1
O=C(CSc1ccccc1)Nc1ccncc1	2	·	·	·	-13	-7	·	-30	·	2.6
CCOC(=O)N1CCN(C(=O)c2ccc3c(=O)n(CCC4=CCCCC4)c(=S)[nH]c3c2)CC1	11	·	·	·	1	3	·	4	·	5.9
CC(=O)OCCNC(=O)c1cc2ccccc2oc1=O	-8	·	·	·	-10	·	·	2	·	?
C[C@@H](C(=O)NCC1CC1)[C@H]1C[C@]1(C)[C@H](NC(=O)OCc1ccccc1)c1ccccc1	-10	-27	-32	19	10	9	i	-10	1.7	2.4
COc1ccc(/C=N/OCC(=O)NC(c2ccccc2)c2ccccc2)c(OC)c1	22	·	·	·	-1	2	·	20	·	1.0
CCC(C(=O)OCC(=O)Nc1cc(Cl)ccc1Cl)c1ccccc1 (stereo not drawn)	8	·	·	·	1	-3	·	-3	·	1.7
Cc1ccc(C)c(NC(=S)NC(C)C(c2ccccc2)N2CCN(C)CC2)c1 (stereo not drawn)	19	7	0	1.7	-12	-15	i	2	5.6	-1.1
O=C(c1ccccc1F)N(Cc1ccc(F)cc1)C1CCS(=O)(=O)C1 (stereo not drawn)	-1	·	·	·	0	-2	·	-6	·	-4.0
O=C(NCc1ccc2c(c1)OCO2)C1CCC(CNc2c(N3CCCCC3)c(=O)c2=O)CC1 (stereo not drawn)	-10	1	3	-2.2	-1	-4	i	1	-1.2	-3.8
COc1ccccc1NS(=O)(=O)c1ccc2ccccc2c1	12	-44	-62	2.4	-10	-4	i	-33	-3.5	1.2
O=C(c1cc2c(=O)n3ccccc3nc2s1)N1CCN(c2cccc(Cl)c2)CC1	12	-14	-12	1.5	0	-1	i	5	-5.2	29*
O=C(COC(=O)c1cccc([N+](=O)[O-])c1)NCc1cccs1	0	6	0	1.0	-6	-4	i	-11	1.1	1.9
O=C(NCc1cccs1)C1CCN(S(=O)(=O)c2ccccc2F)CC1	-5	1	-3	-3.1	6	2	i	-3	0.2	0.0
O=C(NCCc1ccc([N+](=O)[O-])cc1)c1ccccc1	-14	4	8	0.7	-2	-1	i	-9	-3.4	-0.7
COc1ccc(C(=O)NN)cc1COc1ccc(Br)cc1	-12	·	·	·	30	-1	·	-2	·	5.2
CCOc1ccccc1N1CC(C(=O)N(CC)CC(=O)Nc2ccc3c(c2)OCCO3)CC1=O (stereo not drawn)	-1	11	8	1.6	2	-4	i	-2	17	-1.2
C#Cc1ccc([C@@H]2C=C(C(=O)NCc3ccccc3)O[C@H](OCC)[C@H]2CCCO)cc1	9	-5	-4	2.9	-2	2	i	-7	-0.2	1.1
COc1ccccc1N1CCN(C(=O)c2cc(-c3ccc(F)cc3)[nH]c2C)CC1	-3	-1	-1	-11	12	4	i	3	10	-5.1
O=C(Nc1ccccc1)c1nc[nH]c1C(=O)NCc1ccccc1	·	-2	10	-2.0	·	-2	i	3	-1.7	·
Cc1cc(C)c(S(=O)(=O)Nc2cccnc2)c(C)c1	-12	·	·	·	-4	-4	·	3	·	-5.4
CC(=O)c1ccc(N2C(=NC(=O)C3CCCCC3)SC3CS(=O)(=O)CC32)cc1 (stereo not drawn)	5	6	1	3.5	4	1	i	2	-2.6	1.5
Cc1c(NC(=O)CSCc2ccc(Cl)cc2Cl)cccc1C(=O)O	2	-5	-3	-3.3	-3	-1	i	98*	0.2	-4.1
COCCNC(=O)Nc1ccc2c(c1)N(C)C(=O)c1ccccc1S2	-21	4	1	-0.3	8	1	i	96*	-0.8	4.5
O=S1(=O)CCN2N=C(C3CC3)SC2=N1	-6	12	5	-4.6	-20	-6	i	-3	-0.7	-1.7
CC(Oc1ccccc1)C(=O)Nc1c2c(nn1-c1ccccc1)CS(=O)C2 (stereo not drawn)	-3	7	2	-1.2	0	-9	i	-7	-2.5	5.3
Cc1cccc(N=C2Sc3nc4c(C)c(C)ccc4cc3CN2CCN2CCOCC2)c1	?	16	6	31	8	·	i	-2	?	2.2
CCOC(=O)C1CCN(C(=O)C(C)Sc2ccc(Cl)cc2)CC1 (stereo not drawn)	-1	·	·	·	-18	-6	·	-2	·	2.1
CC(=O)Nc1ccc(C(=O)n2nc(C)cc2C)cc1	-17	·	·	·	-22	-6	·	-4	·	-1.6
Cc1ccccc1/C=N/N=C1/NC(=O)CCS1	1	2	2	-1.7	6	·	i	4	·	-3.0
Cc1cc(=O)oc2c(C)c3occc3cc12	0	-5	0	-0.2	0	·	i	8	-1.0	0.1
O=C(O)c1ccc(CSc2nc3ccccc3[nH]2)cc1	-7	-14	-11	-9.3	18	-7	i	3	-1.9	-4.5
O=C(CSc1nnnn1-c1ccccc1Cl)Nc1ccc2c(c1)OCCO2	4	-15	-27	-3.4	2	0	i	-5	-1.3	1.9
Cc1cc(S(=O)(=O)NCC2CCCO2)c(C)cc1Br (stereo not drawn)	7	4	-10	-3.0	3	-6	i	-8	0.5	-0.7
O=C(COc1ccc(S(=O)(=O)NC2CCCCC2)cc1)N1CCN(c2cccc(Cl)c2)CC1	3	-13	-17	27	15	·	i	·	-89	-3.0
CC(C)CNC(=S)NC1CC2CCCC(C1)N2Cc1ccco1 (stereo not drawn)	-11	13	-3	-3.9	8	-6	i	6	3.1	4.9
CCOC(=O)C1CCN(C(=O)CN(c2ccc(OC)c(OC)c2)S(=O)(=O)c2ccccc2)CC1	-5	·	·	·	33	-8	·	-2	·	2.5
CCNC(=O)Cn1cc(C(F)(F)F)cc(Cl)c1=O	-2	3	5	-5.3	0	-4	i	-5	-27	-4.3

Entries listed above marked active in FGF22 binding:
structure	Ecoli rRNA inh	Ecoli rRNA inh OD600	Ecoli rRNA inh RFP	FGF22 binding	ALR inh	AF4-AF9 inh	RanGTP-Impb inh
Nc1cccc(-c2nc3ccc(C(=O)c4ccccc4)cc3[nH]2)c1	-35	-30	-3.2	+	-12	2.9	1.1

Other records.
SMILES	T cruzi repl	Ecoli rRNA inh	Ecoli rRNA inh OD600	Ecoli rRNA inh RFP	Calb FLC	Beta cell apopt	FGF22 binding	ALR inh	AF4-AF9 inh	RanGTP-Impb inh
CCOC(=O)C1CCN(S(=O)(=O)c2ccc(OC)c(C(=O)N3CCCCC3)c2)CC1	5	6	4	-2.7	12	6	i	·	-0.1	4.2
CCCOc1ccccc1/C=C1/C(=O)ON=C1C	-1	-1	10	-1.4	1	-1	i	44	-4.5	-1.9
CC1(C)C(=O)Nc2ccccc2N1C(=O)COC(=O)/C=C/c1ccc(OC(F)F)cc1	-4	7	6	1.0	-5	·	i	-2	-1.2	0.9
COc1ccc(OC)c(N=C(C)C2=C(O)COC2=O)c1	1	·	·	·	-4	8	·	·	·	-4.7
COc1ccccc1NC1=Nc2cccc3cccc1c23	0	-16	-8	-0.2	-1	·	i	2	12	-2.4
O=C(Cc1ccsc1)N1CCc2c([nH]c3ccccc23)C1c1ccccn1 (stereo not drawn)	-22	-31	-42	6.1	20	-6	·	16	5.4	29*
C/C(=N\NC(=O)CSc1nc(C)cc(C)n1)c1ccc([N+](=O)[O-])cc1	-7	16	8	2.8	-23	-2	i	-4	-2.8	1.3
c1ccc(C2=Nn3c(nnc3-c3cccnc3)SC2)cc1	9	·	·	·	16	-2	·	-3	·	-0.9
O=C(Nc1c2c(nn1-c1ccc(F)cc1)CS(=O)C2)c1ccc2c(c1)OCO2 (stereo not drawn)	-4	4	6	-0.4	-6	6	i	-1	1.1	11
CCOCc1nnc(NC(=O)c2ccc3c(c2)OCO3)s1	4	7	8	3.4	-3	0	i	0	0.7	4.7

Reprinted at random: five compounds from above
SMILES	T cruzi repl	Ecoli rRNA inh	Ecoli rRNA inh OD600	Ecoli rRNA inh RFP	Calb FLC	Beta cell apopt	FGF22 binding	ALR inh	AF4-AF9 inh	RanGTP-Impb inh
CCCOc1ccccc1/C=C1/C(=O)ON=C1C	-1	-1	10	-1.4	1	-1	i	44	-4.5	-1.9
CC1(C)C(=O)Nc2ccccc2N1C(=O)COC(=O)/C=C/c1ccc(OC(F)F)cc1	-4	7	6	1.0	-5	·	i	-2	-1.2	0.9
O=C(Cc1ccsc1)N1CCc2c([nH]c3ccccc23)C1c1ccccn1 (stereo not drawn)	-22	-31	-42	6.1	20	-6	·	16	5.4	29*
COc1ccccc1NC1=Nc2cccc3cccc1c23	0	-16	-8	-0.2	-1	·	i	2	12	-2.4
c1ccc(C2=Nn3c(nnc3-c3cccnc3)SC2)cc1	9	·	·	·	16	-2	·	-3	·	-0.9

Continuation.
SMILES	T cruzi repl	Ecoli rRNA inh	Ecoli rRNA inh OD600	Ecoli rRNA inh RFP	Calb FLC	Beta cell apopt	FGF22 binding	ALR inh	AF4-AF9 inh	RanGTP-Impb inh
CN(CCC1CCCCO1)Cc1cn(C)nc1-c1ccc2c(c1)OCCO2 (stereo not drawn)	16	15	10	2.3	-12	-11	i	-3	2.1	2.9
Cc1ccc(NC(=S)N(CCN2CCCCC2)Cc2ccco2)cc1	-10	0	0	-0.9	4	7	i	-4	-0.1	-1.8
CN(C)c1ccc(NC(=O)c2cc3c(=O)n4ccccc4nc3n2C)cc1	-11	·	·	·	6	7	·	82*	·	3.4
CC(=O)N(CCCN1CCOCC1)Cc1ccncc1	11	·	·	·	-8	-7	·	12	·	0.2
COc1ccc(OCC(=O)NNC(=O)C2CCC2)cc1	·	·	·	·	·	-4	i	-3	0.1	·
O=C(N/N=C\c1cc(Br)cs1)C1COc2ccccc2O1 (stereo not drawn)	-8	·	·	·	-4	-6	·	1	·	-0.4
O=C(c1ccc2c(c1)OCO2)N1CCOCC1	-8	8	4	-1.9	14	-7	i	·	-7.6	2.0
COc1ccc(C2C(C#N)=C(/N=C/N3CCOCC3)OC3=C2C(=O)CC(C)(C)C3)cc1OC (stereo not drawn)	-11	·	·	·	10	0	·	-5	·	4.9
CCCc1cc(=O)[nH]c(SCC(=O)Nc2c(C)cccc2C)n1	·	8	4	-6.7	1	-9	i	-2	-2.7	7.3
CCn1cc(C2=NOC(C(=O)Nc3cccc(C(C)=O)c3)C2)c(C)n1 (stereo not drawn)	-18	5	5	-6.8	5	5	i	2	2.5	-0.7
Nc1nc(-c2ccccc2)c(N=Nc2ccc(Cl)cc2)s1	16	-42*	-31*	-10*	12	-5	i	2	-2.5	0.0
